Beta apoptosis: blocks beta cell apoptosis; 0.8% of 300,000 active; protection from apoptosis, % (no concentration beside the values); AID 435005; INS-1E cytokine-induced death, ATP luminescence, 48 h; percent of positive-control rescue, neutral wells zero;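 active = all replicates at 75% or more, or half of them and the mean; inconclusive = half reach 75% but not the mean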;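 note: 0% = cytokine-treated negative control wells and 100% = positive control rescue; higher means more ATP so stronger rescue from cytokine killing; wells of about 40 µL received 100 nL stock; the first replicate is given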
Calb FLC: C. albicans growth modulation with fluconazole; C. albicans CaCi-2 (fluconazole-resistant clinical isolate) + fluconazole, Alamar Blue growth, 48 h; growth inhibition, % (no concentration beside the values); 0.57% of 300,000 active;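 active = most replicates above 75%; inconclusive = exactly half above 75%; inactive = most below 75%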;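 note: all wells also contain fluconazole at 8 µg/ml as a sub-toxic cotreatment; 0% = median of DMSO wells and 100% = median of geldanamycin control wells; wells of about 8 µL received 7.5 nL stock; the first replicate is given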
LANA-H2B inh: blocks KSHV LANA binding to histone H2A/H2B; Q9QR71; 0.6% of 320,000 active; AID 2629; cell-free LANA-H2A/H2B peptide, fluorescence polarization; inhibition, % (concentration not given with the values); in the data active = inhibition mostly above about 10%, no sharp cut-off; inactive = mostly below about 6.7%;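 note: stock transfer was 7.5 nL into about 10 µL; 0% = median of vehicle wells and 100% = median of positive control wells; one replicate is shown; the record names a cut of 25% in any replicate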
A1 inh: inhibitors of the anti-apoptotic protein A1, read as caspase activation | MEF A1-2A-BIM cells, Caspase-Glo 3/7 luminescence, 3 h; percent of clofoctol response, vehicle zero | caspase activation, % (test concentration not listed) | AID 2462 | 0.066% of 330,000 active;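 active = over half of replicate activation scores above 10%, or exactly half above 10 with the replicate mean above 10; inconclusive = replicate mean below 10 yet half the replicates above 10; inactive = over half of replicates below 10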;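 note: wells of about 30 µL received 50 nL stock; many hits fall short of the cut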
ALR inh: blocks human ALR sulfhydryl oxidase activity; P55789; purified ALR, DTT oxidation, H2O2 HRP-luminol luminescence; inhibition, % (concentration not given with the values); 3.8% of 290,000 active;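 active = mean and each replicate at 75% or more; inconclusive = only one of the two met; inactive = neither met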;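 note: stock transfer was 7.5 nL into about 7.5 µL; 0% = neutral wells and 100% = wells with inactivated enzyme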
Target sequence (P55789 whole entry, looked up): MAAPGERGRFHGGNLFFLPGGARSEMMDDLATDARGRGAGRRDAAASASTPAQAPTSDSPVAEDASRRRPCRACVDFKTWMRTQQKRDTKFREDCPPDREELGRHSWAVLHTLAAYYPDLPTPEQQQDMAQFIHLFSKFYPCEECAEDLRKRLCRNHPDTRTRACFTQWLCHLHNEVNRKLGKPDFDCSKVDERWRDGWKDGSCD
Beta2AR agonist: human beta-2 adrenergic receptor agonism by FAP; response, % (test concentration not listed); 0.43% of 340,000 active; Am2.2-beta2AR cells, FAP receptor internalization, flow cytometry; reference of the scale not given here;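 active = response above a set limit, near 3 SD of response in nonfluorescent compounds, cut at about 42% in these data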;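 note: stock transfer was 100 nL into about 11 µL; a reference agonist was the positive control; negative values mostly stem from fluorescent compounds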
Target sequence (P07550 whole entry, looked up): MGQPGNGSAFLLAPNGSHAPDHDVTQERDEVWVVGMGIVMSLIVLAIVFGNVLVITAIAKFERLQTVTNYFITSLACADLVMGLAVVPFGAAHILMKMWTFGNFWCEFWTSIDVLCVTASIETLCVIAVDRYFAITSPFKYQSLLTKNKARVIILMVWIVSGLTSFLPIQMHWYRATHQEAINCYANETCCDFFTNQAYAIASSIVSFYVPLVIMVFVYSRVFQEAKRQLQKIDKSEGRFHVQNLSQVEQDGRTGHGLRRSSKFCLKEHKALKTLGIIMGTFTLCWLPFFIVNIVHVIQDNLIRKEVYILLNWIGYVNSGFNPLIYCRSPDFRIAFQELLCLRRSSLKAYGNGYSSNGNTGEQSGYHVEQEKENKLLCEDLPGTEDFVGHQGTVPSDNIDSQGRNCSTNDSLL
T cruzi repl: T. cruzi replication inhibition. T. cruzi beta-gal in NIH3T3, luminescence, 90 h. 1.4% of 300,000 active. inhibition, % (test concentration not listed);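 active = mean inhibition across valid replicates above about 55%, limit read from the data; inconclusive = mean below that limit but half or more replicates reach it; inactive = mean below it, under half of replicates reach it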;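 note: signal also drops with host cell toxicity which is not excluded here; 0% = plate median of DMSO wells and 100% = zero luminescence signal; higher percent means less beta-gal luminescence so fewer parasites; stock transfer was 50 nL into about 50 µL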
rRNA inh HTS: inhibits bacterial ribosomal RNA function over humanized ribosomes. GFP signal change (wild-type ribosome), % (concentration not given with the values). E. coli WT GFP vs humanized-ribosome RFP mutants, fluorescence, 24 h; active compounds read low; DMSO median 0, no signal -100. 1.6% of 350,000 active;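 active = significant combined selectivity score with lowered wild-type GFP, culture density cut under 30%, mutant RFP and density less affected; inactive = any of these conditions unmet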; note: one replicate is shown; some compounds called inactive have numbers as strong as hits
rRNA inh HTS OD600: second read-out of rRNA inh HTS, no call of its own (marks repeat the call); OD600 change, %; measured here: OD600 growth;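 optical density of the mix in the first replicate; 0 = DMSO median and -100 = no signal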
rRNA inh HTS RFP: also measured in rRNA inh HTS; calls as there; RFP signal change, %; measured here: RFP humanized mutant strains;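 first replicate; 0 = DMSO median and -100 = no signal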
The depositor's hits bear a star; i = inactive; ? = inconclusive; / = no result given. Not all compounds are listed, so the mix of outcomes need not match the whole.

Every second line gives: Beta apoptosis	Calb FLC	LANA-H2B inh	A1 inh	ALR inh	Beta2AR agonist	T cruzi repl	rRNA inh HTS	rRNA inh HTS OD600	rRNA inh HTS RFP
O=C(Cn1ccc2cc(S(=O)(=O)N3CCCC3)ccc21)NCc1ccco1
 : -4.0	-13.4	3.4	-0.6	-16.3	0.7	23.5	6.8	7.6	1.9
O=C(C1CC(c2ccccc2O)=NO1)N1CCCC1 (stereo unspecified)
 : /	-1.4	-8.1	1.3	14.0	-0.8	-9.7	2.8	11.2	-0.1
CCS(=O)(=O)N1CCC(C(=O)NCc2ccc(F)cc2Cl)CC1
 : -2.8	?	-0.5	-0.7	-4.3	-4.4	-8.2	6.4	7.2	-0.3
CCN(CC)S(=O)(=O)c1cc(NC(=O)COC(=O)c2ccc(NC(=O)CC#N)cc2)ccc1C
 : -2.8	19.7	0.2	1.3	73.8	-2.6	1.9	-23.0	2.1	11.8
COc1ccccc1NC(=O)Cn1nnc(-c2ccccc2NS(=O)(=O)c2ccccc2)n1
 : 0.1	3.0	2.1	-0.6	1.6	-2.2	-6.9	-4.6	-14.4	-2.9
CN(Cc1ccc2ccccc2c1)C(=O)c1ccc(C(F)(F)F)cc1
 : -3.4	-1.1	1.1	0.1	-15.8	-9.0	18.7	-4.5	-10.3	-0.6
CCCS(=O)(=O)N1CCCC(c2nc(-c3ccc(OC)cc3)no2)C1 (stereo unspecified)
 : -12.6	-13.3	2.6	0.1	0.0	-3.9	6.7	16.1	5.7	-0.1
O=C(NCCN1CCc2ccccc2C1)Nc1ccc(F)cc1
 : 2.9	2.4	-2.8	0.7	-11.0	0.9	-4.3	10.1	15.2	1.1
O=C(O)c1cccc(-c2ccc(/C=c3/sc4nc5ccccc5n4c3=O)o2)c1
 : -1.1	8.4	1.1	0.0	/	15.1	-5.3	-1.8	17.2	7.2
CCc1nnc(NC(=O)C2Cc3ccccc3CN2S(=O)(=O)CC)s1 (stereo unspecified)
 : -3.4	-2.5	7.8	-0.3	-2.1	-3.1	-6.4	1.0	-1.3	2.5
CC(=O)N=C1SC2CS(=O)(=O)CC2N1c1ccccc1Cl (stereo unspecified)
 : -1.8	-2.2	3.0	1.2	/	1.4	1.4	/	/	/
Cc1ccnc(SCc2cn3c(C)cc(C)nc3n2)n1
 : -1.5	-11.3	1.5	1.1	-7.8	-7.5	-3.5	8.6	5.4	2.7
COC(=O)c1ccccc1S(=O)(=O)N1CCC(NC(=O)C(Cc2cccc(OC)c2OC)NC(C)=O)CC1 (stereo unspecified)
 : /	0.1	/	/	/	4.4	1.6	2.8	17.9	3.8
O=C(Nc1ccccc1N1CCCC1)c1ccc(Cl)c(S(=O)(=O)N2CCOCC2)c1
 : -1.8	0.0	-2.2	0.2	-9.1	-3.4	31.5	-10.2	-7.9	3.9
COCCCNC(=O)C1CC(=O)N(CCc2ccccc2)C1 (stereo unspecified)
 : 1.0	-3.1	0.4	0.8	0.3	0.8	-22.6	/	/	/
Cc1cccc(S(=O)(=O)NCCC(=O)OCC(=O)Nc2ccc(C#N)cc2)c1
 : -2.8	5.8	-3.7	-0.2	-3.0	-3.0	-12.3	/	/	/
CCOC(=O)CSc1nnc(-c2ccccc2OC)o1
 : -2.2	-25.6	4.6	-1.3	-7.3	-3.7	-4.5	-0.6	-6.8	-3.2
CCOC(=O)c1cnc2ccc(OC)cc2c1NCCN1CCOCC1
 : 8.9	4.6	8.0	0.1	-4.1	11.3	20.5	-7.6	-2.5	3.9
CC(=NC1CCCC1)c1c(C)[nH]n(-c2nc3ccccc3s2)c1=O
 : -2.8	19.4	-1.6	-1.5	93.0*	-24.6	7.6	/	/	/
O=C(NCc1ccccc1Cl)C1CCCN(c2nc3ccsc3c(=O)s2)C1 (stereo unspecified)
 : -0.1	-1.7	-3.6	0.3	-13.6	/	7.2	/	/	/
Cc1nc2[nH]onc2c2nccc(=O)c12
 : -5.4	0.4	0.1	0.0	-7.3	-7.2	-26.2	/	/	/
CCN(CC)S(=O)(=O)c1ccc(C)c(NC(=O)CN2CCN(Cc3ccccc3)CC2)c1
 : 9.2	-7.5	-5.1	1.2	-5.1	10.2	38.0	4.4	-2.3	-4.7
O=C(CSC(=S)N1CCCCC1)Nc1ncc2c(n1)CC(c1ccco1)CC2=O (stereo unspecified)
 : 0.4	3.9	0.7	0.5	1.3	-17.3	-11.6	-5.6	-2.4	3.8
O=C(CCc1c[nH]c2ccccc12)N=Nc1c(O)[nH]c2ccccc12
 : -0.8	21.7	-7.6	-0.3	-25.2	-3.0	12.2	-4.7	-5.5	-0.3
CCc1ccc(C(C)NC(=S)NCc2ccc(F)cc2)cc1 (stereo unspecified)
 : 8.4	-23.4	-4.2	-0.6	5.7	8.2	-12.6	-35.3	-38.3	-5.7
CCn1cc(CN2CCN(CC(C)(C)C)C(CCO)C2)c2ccccc21 (stereo unspecified)
 : /	2.3	1.9	0.7	-5.4	-0.4	9.6	4.2	0.1	0.3
Cc1c(C(=O)N2CCc3ccccc32)oc2ccccc12
 : 8.8	-0.1	i	-6.4	-2.1	-15.5	2.6	/	/	/
COc1ccc(C(CNC(=O)c2ccc(Br)o2)N2CCN(C)CC2)cc1 (stereo unspecified)
 : -5.0	-4.8	2.5	-0.8	-2.2	-5.5	2.6	5.1	9.4	-2.7
O=C(CCCCl)OCc1cn(-c2ccc(Cl)cc2)nn1
 : 0.2	-9.6	-5.4	0.2	-6.4	-2.1	-24.5	12.5	6.0	1.7
O=C(COC(=O)c1cc(Cl)ccc1[N+](=O)[O-])NC1CC1
 : 3.6	/	5.6	-1.1	-14.4	-6.7	/	-0.3	1.2	-2.1
O=C(N/N=C1/CCc2ccccc21)C1CC1
 : -6.2	9.2	-10.0	-0.5	0.8	-9.6	-14.4	2.8	10.0	-0.6
CCOC(=O)N1CCN(C(=O)c2ccccc2-c2ccccc2)CC1
 : 0.8	-7.1	12.0	0.3	-4.5	-13.8	-79.4	/	/	/
Cc1cc(-c2ccc3c(c2)COc2c4ccccc4nn2-3)on1
 : 6.2	-15.5	6.1	-11.8	3.7	1.0	-11.0	/	/	/
CCCCC(C)n1[nH]c(=O)c2c(C)cc(C)nc21 (stereo unspecified)
 : 3.2	10.5	0.5	-0.3	29.3	-4.2	-21.1	4.6	-3.3	-4.9
Cc1ccc(-c2nc3ccsc3c(=O)o2)cc1
 : 3.1	/	4.6	-14.0	15.2	4.9	-6.0	/	/	/
CC(C)n1c(N2CCN(C(=O)NCc3ccccc3)CC2)nc2ccccc21
 : -6.8	4.6	0.5	0.2	-4.6	1.1	-7.3	/	/	/
O=C(NCc1cccnc1)C1CCCN1S(=O)(=O)c1ccc(Cl)cc1 (stereo unspecified)
 : 1.1	8.5	1.3	0.0	-11.2	37.7	1.1	6.8	6.8	2.3
Cc1ccc(NC(=O)c2cc(-c3ccc4c(c3)OCO4)on2)cc1C
 : 1.5	-6.5	-3.7	-0.6	/	11.6	-9.6	3.8	14.4	-0.4
Cn1c(N)c(C(=O)COC(=O)c2cc(C3CC3)nc3ccccc23)c(=O)n(C)c1=O
 : -6.1	-9.9	6.3	0.2	-2.1	17.8	-0.9	4.8	11.3	-3.6
COc1cc2c(cc1OC)/C(=C/C(=O)c1ccccc1F)NCC2
 : -2.5	-24.4	-1.4	0.4	-5.2	31.9	9.2	-3.8	0.7	0.0
COc1ccc(OC(C)C(=O)Nc2cccc(OC)c2)cc1 (stereo unspecified)
 : 0.2	-14.6	0.9	0.5	-5.0	3.0	-1.9	/	/	/
Cc1ccc2nsnc2c1S(=O)(=O)NCc1ccc2c(c1)OCO2
 : -2.9	0.1	2.5	1.0	-5.9	-5.7	-12.1	/	/	/
COC(=O)c1cc(NC(=O)c2ccc(C)cc2)c(=O)oc1C
 : /	-2.0	3.4	-8.0	2.4	-24.5	-11.6	6.9	9.7	-1.3
CCOC(=O)Cn1nc(C)n(-c2ccc(F)cc2)c1=O
 : -7.9	-1.0	-2.8	0.1	20.5	-2.5	-8.2	15.9	-0.4	-1.4
CSCCC(NC(=O)c1cccc(C)c1)C(=O)Nc1sccc1C(N)=O (stereo unspecified)
 : 3.5	3.9	-1.6	1.0	4.0	-4.6	-4.1	-0.3	0.3	-1.5
Cc1cc2nc(C3CCN(CC4COc5ccccc5O4)CC3)[nH]c2cc1C (stereo unspecified)
 : /	0.0	1.0	-0.1	-3.4	0.5	-21.3	/	/	/
CCN(CC)c1ccc(NC(=O)c2ccc(Cl)nc2)cc1
 : 36.3	5.5	2.0	-0.5	74.1	-14.8	-11.4	/	/	/
CCOC(=O)CC1(c2ccccc2)CCOC(C)(C)C1 (stereo unspecified)
 : -5.9	-1.4	2.9	0.0	0.0	-0.3	-0.9	/	/	/
CCOC(=O)C(C)Oc1cccc2c(=O)n(CC(=O)Nc3ccc4c(c3)OCCO4)ccc12 (stereo unspecified)
 : 12.3	-4.7	1.9	0.9	-3.0	13.9	0.9	8.9	6.2	1.5
O=C(CSCc1ccccc1Cl)N1CCN(c2ccccn2)CC1
 : 0.9	7.5	1.4	0.4	99.1*	-15.7	24.2	/	/	/
CCN1CCC2(CC1)N=C(c1ccc(F)cc1)C(=S)N2
 : 2.4	2.3	-2.2	-0.4	11.4	-5.0	-1.2	17.1	8.0	4.6
COCCNC(=O)c1cc(S(=O)(=O)N2CCOCC2)ccc1SCc1cccc(OC)c1OC
 : -1.3	10.8	/	-1.2	/	-2.9	-10.3	-4.0	-1.6	-0.6
COc1ccc(CNC(=O)CN(c2ccc(C)cc2)S(=O)(=O)c2c(C)nn(C)c2C)cc1
 : 6.4	4.4	-1.2	-1.5	-1.7	0.5	-5.0	-5.0	-19.0	0.4
Cc1ccc(OCC(=O)N2CCN(S(=O)(=O)c3ccc4c(c3)OCCO4)CC2)c(C)c1
 : -4.3	/	12.4	-0.7	-25.8	2.0	/	-5.3	-24.0	-1.7
COc1ccc(-n2nc3c(N4CCC(C(=O)NC5CCCCC5)CC4)nnc(C)c3c2C)cc1
 : 12.4	-9.0	2.2	-0.6	-4.3	12.2	15.4	/	/	/
Cc1nn(Cc2ccc(F)cc2)c(C)c1NC(=O)c1cnn2cccnc12
 : -9.3	25.7	2.9	-0.5	-2.5	4.2	-10.6	/	/	/
CCc1ccc(-c2ccc3nnc(SCC(=O)NCC4CCCO4)n3n2)cc1 (stereo unspecified)
 : 2.2	-1.3	-4.9	0.2	3.4	5.5	-9.6	-4.7	2.9	-3.3
CN(c1cnn(-c2ccccc2)c(=O)c1Cl)n1cccc1
 : -8.9	13.8	0.7	0.2	-35.1	-8.3	3.8	4.5	-5.4	-0.7
COc1ccc(C(CNC(=O)Cc2ccccc2)N2CCCCC2)cc1 (stereo unspecified)
 : -2.0	-6.1	-6.1	-0.2	/	10.5	-6.9	2.4	5.4	-0.4

Bioassay records: PubChem BioAssay, several laboratories
